Compound activity: PubChem, National Center for Advancing Translational Sciences (NCATS)
Rango complex inh: Rango-importin beta binding inhibition | Rango CFP/YFP FRET sensor + importin beta, 45 min | Potency, µM (series often up to 92.2 µM), without a hit: top-dose inhibition of complex formation | 0.031% of 340,000 active; active = rising FRET ratio curve, often small or poorly fitted; inconclusive = mostly compound fluorescence or quenching in the first reads; inactive = flat curves in all reads;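 note: potency is the fitted concentration of half-maximal effect; 0% = DMSO wells and 100% = buffer wells lacking importin beta; nearly all actives have a fitted effect of over 15% in size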
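FRET biosensor Rango (snurportin 1 IBB between N-terminal EYFP and C-terminal Cerulean), 50 nM in PBS/1 mM DTT/0.02% Tween-20/0.1% BSA, preincubated 5 min RT with compound; 0.125 microM importin beta added, 45 min RT, CFP/YFP FRET ratio read.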
miR-21 reporter: miR-21 reporter, rising signal; 340,000 tested, under 10 active; HeLa miR-21 FLuc reporter, luciferase, 48 h; Potency, µM (doses to about 38.3 µM), for the others: at the highest dose reporter change, positive = more light; active = well fitted rising curve with a large enough effect; inconclusive = small, poorly fitted or top-dose-only effect; inactive = no such curve, though single readings can be large or run the other way;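 note: % of control where 0% means no effect; miR-21 action dims this reporter so a rising signal means less miR-21 action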
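Using DMEM plus 10% FBS, HeLa miR-21-FLuc cells are incubated with test compounds (final up to about 40uM) for 48 hours; firefly luciferase signal is then imaged following reagent-mediated lysis.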
Rango release inh: prevents RanGTP from dissociating the Rango-importin beta complex; AID 540253; 0.071% of 340,000 active; Biochemical FRET Rango-importin beta, RanGTP-induced dissociation; O95149+P62826; Potency, µM (doses to about 46.1 µM), without a hit: at the top dose activity change, negative = inhibition; active means falling FRET ratio curve, often poorly fitted, with flat reads before Ran was added; inconclusive means other falling curves, or compound fluorescence or quenching; inactive means flat or rising ratio curve;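 note: potency is the fitted concentration of half-maximal effect; % of control where 0% means no effect; nearly all actives have a fitted effect of over 45% in size; -100% = wells without RanGTP and RCC1; the record marks most hits as doubtful in a second field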
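Compounds preincubate 5 min with complex of recombinant Rango and importin beta in PBS with 1 mM DTT. Ran (0.6 uM) loaded with 2 mM GTP plus 0.2 uM RCC1 starts dissociation; FRET is recorded 45 min later.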
GLA inh pH 4.5: blocks human alpha-galactosidase A at pH 4.5 | P06280 | purified enzyme, 4-MU-alpha-Gal fluorescence, pH 4.5 | activity change, negative = inhibition, % at 105 µM | 230,000 tested, under 10 active | AID 1467; inconclusive = small, poorly fitted or top-dose-only inhibition, or a rising curve; inactive = flat fitted curve, though single readings scatter; no compound was filed as active;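 note: 0% = full activity with enzyme and -100% = basal without enzyme; dose as in the result columns while the protocol names 77 µM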
Target sequence (P06280 whole entry, looked up): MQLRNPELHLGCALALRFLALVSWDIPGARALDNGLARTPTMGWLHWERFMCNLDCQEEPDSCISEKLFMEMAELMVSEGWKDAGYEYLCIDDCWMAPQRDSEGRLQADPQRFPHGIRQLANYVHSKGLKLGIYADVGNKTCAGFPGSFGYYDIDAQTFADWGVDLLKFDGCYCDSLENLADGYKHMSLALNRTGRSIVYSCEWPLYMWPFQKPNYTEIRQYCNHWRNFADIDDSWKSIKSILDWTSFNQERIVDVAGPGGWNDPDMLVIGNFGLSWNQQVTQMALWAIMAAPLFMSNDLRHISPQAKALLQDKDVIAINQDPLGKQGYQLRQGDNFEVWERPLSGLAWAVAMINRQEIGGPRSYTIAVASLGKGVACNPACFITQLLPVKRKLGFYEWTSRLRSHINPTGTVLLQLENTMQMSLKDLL
* hit, by the source's call; ? = inconclusive; . = no result given.

miR-21 reporter	GLA inh pH 4.5	Rango complex inh	Molecule	Rango release inh
-9.0%	.	2.9%	Cc1noc(C(=O)Nc2ccc(C#N)cc2)c1Cl	0.5%
-9.7%	2.4	3.6%	CS(=O)(=O)N(Cc1ccc(F)cc1)Cc1nc2ccccc2c(=O)[nH]1	-11.5%
-2.9%	-2.8	-0.9%	O=C(O)CC1(CC(=O)Nc2ccc3ccccc3c2)CCCCC1	-5.3%
-5.3%	12.0	-4.1%	CC1=CCn2c(=O)c3ccccc3c(=O)n2C1	-3.9%
-2.4%	1.7	-0.7%	CCN(CC)CCNC(=O)C1c2cc(OC)c(OC)cc2C(=O)N(C)C1c1cccs1 (stereo not given)	-1.4%
1.7%	6.9	-0.1%	COCCn1c(SC2CCCCC2=O)nnc1-c1ccncc1 (stereo not given)	-0.6%
-54.8%	9.1	-1.5%	Cc1cccnc1NC(=S)Nc1ccc(Cl)c(Cl)c1	29.6%
-2.4%	.	-1.8%	Cc1cc(NC(=O)CSc2nnc(CNC(=O)c3ccccc3)o2)no1	20.3%
-14.1%	-6.6	0.5%	O=C(NNC(=O)c1ccc(Br)o1)c1ccc(NC(=O)c2ccccc2)cc1	-12.5%
.	.	-0.4%	O=C(CNC(=O)c1ccccc1F)OCn1nnc2ccccc2c1=O	?
-3.6%	.	0.2%	CC(C)(C)NCC(O)COc1ccccc1C(=O)CCc1ccccc1 (stereo not given)	1.9%
-35.6%	4.1	?	Cc1ccc(/C=C(\C#N)c2nc3ccccc3[nH]2)s1	-17.5%
-4.0%	-2.2	1.5%	CC1(C)Cc2ccccc2C(Nn2cnnc2)=N1	-10.4%
.	.	7.9%	O=C(COC(=O)c1ccc(Br)o1)Nc1cccc(S(=O)(=O)N2CCOCC2)c1	?
.	.	0.8%	Cc1cc(OCC(=O)NCC(c2cccs2)N2CCOCC2)ccc1C(C)C (stereo not given)	7.4%
-71.0%	-1.9	-0.3%	CC(=O)c1sc(NC(=O)c2ccc(C(C)(C)C)cc2)nc1C	0.3%
-8.8%	.	2.1%	Cc1cc(C(=O)N2CCC(Cc3ccccc3)CC2)no1	-12.0%
-7.7%	0.5	-4.5%	N#C/C(C(N)=O)=C1/CCc2ccccc2N1	?
-38.3%	-1.1	-0.5%	COc1ccc(NC(=O)Cc2c(F)cccc2Cl)cc1	-13.3%
-0.3%	-11.8	-0.2%	O=C(Nc1nc2n(n1)C(c1ccc(Cl)cc1)CC(c1ccc(Cl)cc1)N2)c1ccco1 (stereo not given)	1.0%
-20.3%	10.3	-5.6%	O=C(OCc1ccc(Cl)cc1)c1ccccc1C(=O)c1ccccc1	9.7%
1.4%	-3.5	2.9%	COC(=O)c1ccc(/C=N/NC(=O)CC(=O)NC(C)C)cc1	10.7%
-2.0%	8.0	1.6%	COc1ccccc1-c1ccc(=O)n(CC(=O)Nc2ccc(C(=O)N3CCCC3)cc2)n1	-7.8%
.	.	6.6%	CCOC(=O)c1c(C)[nH]c(C)c1C(=O)COC(=O)Cc1n[nH]c(=O)c2ccccc12	0.8%
15.7%	-13.0	2.3%	O=C(O)c1cccc(CSc2nnc(COc3ccccc3)o2)c1	6.5%
.	.	4.7%	O=C1NC(=S)NC1=Cc1ccco1	15.4%
-57.0%	-16.2	4.4%	CSc1ccc(-c2cccc([N+](=O)[O-])c2)nn1	-5.7%
0.1%	.	3.8%	COc1ccccc1NCN1C(=O)CCC1=O	6.3%
.	.	-0.4%	O=C(CSc1nc2[nH]ncc2c(=O)[nH]1)Nc1cccc(Cl)c1	-5.0%
.	.	2.1%	COc1ccc(-c2noc(CN(C)S(=O)(=O)c3ccccc3)n2)cc1OC	-2.4%
.	.	-0.6%	CCN1/C(=C/C=C/c2sc3ccccc3[n+]2CC)Sc2ccccc21	0.2%
1.6%	9.4	-0.1%	COc1cccc(CNS(=O)(=O)c2cccc(S(=O)(=O)N3CCOCC3)c2)c1	11.0%
0.1%	5.3	-3.6%	Cc1cc(=O)[nH]c(SCC(=O)Nc2cc(S(=O)(=O)N(C)C)ccc2Cl)n1	1.0%
6.9%	.	-4.7%	N#Cc1cccc(C(=O)Nc2cccc(S(=O)(=O)N3CCCC3)c2)c1	-17.0%
1.0%	.	-2.8%	COc1ccc(C(C(=O)NC2CCCC2)N(Cc2ccco2)C(=O)c2snc(C(N)=O)c2N)cc1OC (stereo not given)	-7.1%
.	.	0.7%	CC1(c2ccc(OC(F)F)cc2)NC(=O)N(CC(=O)NC2CCCC2)C1=O (stereo not given)	-0.7%
2.1%	.	1.0%	COc1ccc(S(=O)(=O)N(C)C)cc1NC(=O)CCCSc1ccccc1	12.5%
-6.4%	-14.7	0.1%	CC(=O)N(C)c1ccc(OCC(O)Cn2c3ccc(Cl)cc3c3cc(Cl)ccc32)cc1 (stereo not given)	7.5%
4.9%	-9.7	6.4%	COc1ccc(OC)c(NC(=O)c2nnn(Cc3ccccc3C)c2N)c1	-9.1%
-3.2%	-5.9	1.0%	NC(=O)NC(Cc1ccccc1)c1ccccc1 (stereo not given)	39.4%
-22.1%	.	-2.1%	COc1ccc(OC)c(NC(=O)N2CCc3ccccc3C2)c1	?
.	.	-0.6%	CCCCN(C(=O)c1cc2ccccc2o1)c1c(N)n(CCCC)c(=O)[nH]c1=O	-7.6%
0.7%	0.2	2.2%	CSc1nnc(-c2cccc(NC(=S)NN)c2)o1	1.0%
-2.8%	-6.2	3.1%	CN1CC(c2ccccc2)C(c2ccc(Cl)cc2)=N1 (stereo not given)	-8.0%
-7.7%	5.8	2.4%	CCOC(=O)NCc1ccc(CNC(=O)OCC)cc1	-0.5%
-18.7%	-2.7	2.7%	COc1cccc(/C=N/n2c(C)nc3ccccc32)c1OC	-1.2%
.	.	-3.2%	CC(C)COC(=O)N1CC(O)CC1C(=O)Nc1ccc2c(c1)OCO2 (stereo not given)	-9.4%
0.0%	-19.4	-3.2%	CCN1C(=O)N(C(C)=O)C2C1N(C(C)=O)C(=O)N2C(C)=O (stereo not given)	-13.3%
-0.2%	4.0	3.2%	COc1ccccc1C(=O)Nc1onc(C)c1C#N	5.4%
1.6%	.	?	COC(=O)CCc1cccc(CCC(=O)OC)c1	11.4%
-0.2%	.	-0.7%	Cc1ccccc1NS(=O)(=O)c1ccc(NS(=O)(=O)c2cccs2)cc1	-13.0%
-23.4%	.	-2.3%	Cc1nc(NC(=O)c2cc3ccccc3o2)ccc1Br	1.8%
.	.	-3.8%	CCCCN(C(=O)CSCC(=O)Nc1ccc(OC)cc1)c1c(N)n(Cc2ccccc2)c(=O)[nH]c1=O	8.1%
-10.1%	1.1	.	C#CCOCCOCCOCCNc1nc(N2CCN(C(=O)[C@H](C)n3cc(CCCN=C(N)N)nn3)CC2)nc(N2CCN(C(=O)[C@H](CCCCN)n3cc(CCCC)nn3)CC2)n1	.
-47.2%	9.2	0.2%	CCCc1c(C)c2ccc(OCC(C)=O)cc2oc1=O	4.4%
-0.1%	-4.3	1.9%	Cc1cc(C)cc(N(CC(=O)NC2CCCCC2)C(=O)c2ccc(C)s2)c1	17.9%
.	.	0.3%	Cc1cc(NC(=O)C(C)SCC(=O)Nc2ccccc2N2CCCC2)no1 (stereo not given)	18.3%
1.6%	.	-0.5%	Cc1[nH]n(-c2ccccc2)c(=O)c1N=Nc1cccc(Cl)c1	-1.7%
-13.7%	0.0	-0.3%	Cc1ccc(-c2oc3ccccc3c(=O)c2OCC(=O)O)cc1	1.0%
-6.5%	4.5	2.4%	CCCCCNC(=O)C(C)Sc1ccc(Cl)cc1 (stereo not given)	0.6%

Next entries follow:
miR-21 reporter	GLA inh pH 4.5	Rango complex inh	Molecule	Rango release inh
-3.5%	-0.5	0.9%	CCCCN(C(=O)c1cc(=O)[nH]c2ccccc12)c1c(N)n(CCC)c(=O)[nH]c1=O	0.5%
11.6%	-1.2	-1.7%	CCN(CC)C(=O)/C(NC(=O)c1ccccc1)=C(/Sc1ncccn1)c1ccccc1	0.5%
-20.3%	-0.2	1.2%	Cc1ccc(-c2cccc(NC(=O)C3C(C(=O)O)[C@@H]4C=C[C@H]3C4)c2)o1 (stereo not given in full)	2.0%
0.8%	-8.5	0.1%	COc1cc(C(=S)N2CCOCC2)ccc1OC(=O)Cc1ccc(F)cc1	0.1%
-5.9%	.	0.3%	Cc1ccc(CC(=O)NCC(O)c2ccccc2)cc1 (stereo not given)	0.1%
3.2%	-1.0	5.8%	CCN(C(=S)Nc1cc(S(=O)(=O)N2CCOCC2)ccc1Cl)c1cccc2ccccc12	-20.6%
?	-1.2	?	N#C/C(=C/c1ccc(N2CCCCCC2)o1)c1ccc(Cl)cc1	?
.	.	-2.5%	O=[N+]([O-])c1cccc(Cn2cnc3c(=S)nc[nH]c32)c1	14.3%
-5.5%	-7.7	-0.5%	CC(C)C(c1nnnn1Cc1ccc2c(c1)OCO2)N1CCN(c2ccccc2)CC1 (stereo not given)	4.4%
-24.8%	0.1	-0.5%	Cc1nnc(-c2cccc(C(F)(F)F)c2)nc1N1CCOCC1	4.1%
6.5%	-15.1	0.8%	Cc1cccc(NC(=O)C2C(c3ccccc3)C2(Cl)Cl)c1 (stereo not given)	-2.4%
-9.6%	?	-0.3%	CNC(=O)C1CC(=O)N(Cc2ccc(OC)c(OC)c2)C(=Nc2ccc(OC)cc2)S1 (stereo not given)	9.6%
3.7%	.	3.5%	Cc1cc(NC(=O)CCC(=O)N(c2ccc(C)c(F)c2)C(C(=O)NC2CCCC2)c2ccco2)no1 (stereo not given)	8.1%
-12.7%	-1.2	-3.9%	CC(NC(N)=O)C12CC3CC(CC(C3)C1)C2 (stereo not given)	0.2%
.	.	1.8%	Cn1cnnc1SCC(=O)Nc1ccc(N2CCCCC2)cc1	5.2%
-4.8%	-2.4	-1.8%	CCCCCCNC(=O)CCCCCNS(=O)(=O)c1ccc(OC)cc1	-4.8%
-3.4%	6.2	0.9%	CCSc1nnc(NC(=O)c2csc3c2CCCC3)s1	9.9%
-30.9%	4.6	-0.8%	CC(=O)c1c(C)[nH]c(C(=O)Nc2ccc3c(c2)OCCO3)c1C	5.9%
7.4%	.	2.5%	COc1ccc(C(=O)Nc2nnc(SCC(=O)NCc3ccco3)s2)c(OC)c1	2.7%
0.0%	8.0	-1.3%	Cc1cc(C)n(C(=O)c2ccc(Cl)c(F)c2F)n1	3.6%
-2.6%	.	-2.9%	Cc1ccc(CNC(=O)CCCCCNC(=O)N2CCn3c2nc2ccccc23)cc1	-3.4%
3.4%	3.3	-1.6%	Nc1nc2ccccc2n1CCOc1ccccc1Cl	2.6%
-10.7%	12.9	-0.1%	O=C(CCN1C(=O)C2CCCCC2C1=O)Nc1nc(-c2ccc(F)c(F)c2)cs1 (stereo not given)	4.2%
-17.0%	3.1	0.7%	Cc1cc(N2CCC(C)CC2)nc2cccc(O)c12	20.6%
5.9%	0.6	0.2%	COc1ccc(CCNC(=O)CSc2nc(O)c(CC(C)C)c(=O)[nH]2)cc1OC	0.7%
-1.3%	-9.6	?	CCOC(=O)c1c(NC(=O)C2CCCN(S(=O)(=O)c3ccccc3)C2)sc2c1CCCC2 (stereo not given)	-16.2%
-2.2%	1.9	0.2%	COc1ccc(CCNS(=O)(=O)c2cccc(C)c2)cc1OC	-17.0%
-3.3%	-5.2	.	O=C(C(=O)N1CCc2ccccc2C1)N1CCc2ccccc2C1	.
-4.7%	-26.2	?	CCOn1c(=O)c(-c2ccc(OC)c(OC)c2)[n+]([O-])c2ccccc21	-15.0%

Arranged by molecular weight (descending): 3 of the compounds above.
miR-21 reporter	GLA inh pH 4.5	Rango complex inh	Molecule	Rango release inh
-9.6%	?	-0.3%	CNC(=O)C1CC(=O)N(Cc2ccc(OC)c(OC)c2)C(=Nc2ccc(OC)cc2)S1 (stereo not given)	9.6%
6.9%	.	-4.7%	N#Cc1cccc(C(=O)Nc2cccc(S(=O)(=O)N3CCCC3)c2)c1	-17.0%
6.5%	-15.1	0.8%	Cc1cccc(NC(=O)C2C(c3ccccc3)C2(Cl)Cl)c1 (stereo not given)	-2.4%

An excerpt (hit frequency here may not be typical).
